S aureus helic = inhibitors of S. aureus replicative helicase, primary screen, biochemical, fluorescence unwinding readout; purified S. aureus helicase, fluorescence unwinding assay; about half of the hits fall short of the stated cut; 0.05% of 120,000 active; inhibition, %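 (tested at about 80 µM)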; replicative DNA helicase (DnaC/DnaB), Staphylococcus aureus;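 active means both duplicates at 50% or more, or one of them with a favoured structure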;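 further: 0% = mean of negative control wells and 100% = mean of positive control wells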
MgrA DNA FP = S. aureus MgrA activity modulators, primary screen, biochemical, S. aureus Newman, fluorescence polarization. MgrA-DNA binding. inhibition, %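 (about 10 µg/mL by stock and volumes)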. 0.13% of 84,000 active. AID 602314, 2012;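 active means above 50% in either of two replicates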;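 further: 0% = protein plus DNA without compound and 100% = DNA alone without protein; higher means less MgrA bound to DNA so lower polarization; one replicate is shown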
An asterisk follows results filed as active; nt = not tested or not shown. A portion of the library; count on the stated rates, not on these rows.

smiles | S aureus helic | MgrA DNA FP
NN1C(=O)c2cccc3cccc(c23)C1=O | -7 | nt
O=C(CSc1nnc2ccccn12)Nc1cccc(C(F)(F)F)c1 | nt | -2.6
CC(C)Cc1ccc(/C=C/C(=O)N2CCOCC2)cc1 | 21 | 0.6
c1cc(SSc2ccsc2)cs1 | 20 | 2.4
O=C(O)CCC(=O)N(Cc1ccccc1)Cc1ccccc1 | 0 | nt
CC(C)N1CC2=C(OC(N)=C(C#N)C2c2cccnc2)/C(=C/c2cccnc2)C1 (stereo not drawn) | 0 | 0.6
NC(=S)N/N=C/c1cccc(Br)c1 | 28 | nt
O=C(CSc1n[nH]c(=O)[nH]c1=O)N1CCCCCC1 | -12 | nt
CCOC(=O)/C(=C(/C)Nc1ccc(F)cc1)C1CC(=O)N(c2cc(C)on2)C1=O (stereo not drawn) | 15 | nt
O=C(CCN1C(=O)/C(=C\C=C\c2ccco2)SC1=S)Nc1ccc(C(=O)O)c(O)c1 | -8 | nt
O=C(Nc1nc2nc(-c3ccccc3)cc(=O)n2[nH]1)C1CC1 | 24 | nt
Cc1ccc2nc(CN3NS(=O)(=O)c4ccccc4C3=O)cn2c1 | -10 | nt
CC(C)(C)N1CC(CO)OC1=O (stereo not drawn) | nt | -1.4
O=S(=O)(CC(c1ccccc1)N1CCOCC1)c1ccc(Cl)cc1 (stereo not drawn) | -15 | nt
c1cn(CCCNc2ncnc3ccsc23)cn1 | nt | 0.6
COc1ccc2nc(SCC(=O)c3cc4c5c(c3)CC(=O)N5CCC4)[nH]c2c1 | -17 | nt
N#Cc1ccccc1S(=O)(=O)N1CCNCC1 | -13 | nt
COC(CNC(=O)Cc1ccc(-n2c(=O)[nH]c3ccsc3c2=O)cc1)OC | -4 | 0.6
Cc1nc2sc(-c3ccccc3)cc2c(=O)n1-n1cccc1 | 6 | -1.0
O=C(Cc1csc(NC(=O)c2cccs2)n1)NO | 1 | nt

Entries shown so far with an aryl thioether with sulfur outside any ring:
smiles | S aureus helic | MgrA DNA FP
O=C(CSc1nnc2ccccn12)Nc1cccc(C(F)(F)F)c1 | nt | -2.6
O=C(CSc1n[nH]c(=O)[nH]c1=O)N1CCCCCC1 | -12 | nt
COc1ccc2nc(SCC(=O)c3cc4c5c(c3)CC(=O)N5CCC4)[nH]c2c1 | -17 | nt

Other entries:
smiles | S aureus helic | MgrA DNA FP
CCc1ccc(N=Cc2c(O)ccc3ccccc23)cc1 | -69 | nt
OC(CSc1ccccc1)CN1CCN(Cc2ccc3c(c2)OCO3)CC1 (stereo not drawn) | nt | -1.9
CCn1c2ccccc2c2cc(NC(=O)CN3CCN(S(=O)(=O)c4ccc(OC)cc4)CC3)ccc21 | 9 | nt
CN1CCN(C(=O)c2ccc(N)cc2)CC1 | -4 | -0.7
c1ccc(CCN2Cc3ccccc3C2)cc1 | 7 | nt
CC1(C)OC(=O)C(=Cc2cccn2-c2ccc(S(N)(=O)=O)cc2)C(=O)O1 | 0 | 0.6
CC(=O)N1CCCc2cc(S(=O)(=O)NC3CCCCC3)ccc21 | 19 | 1.4
CCOc1cc(C(=S)N2CCOCC2)ccc1OC | 4 | 16
COc1cccc(Oc2nc3ncn(Cc4ccccc4)c3c(=O)n2C)c1 | -15 | 2.8
N#Cc1nnn(-c2cc(Cl)cc(Cl)c2)c1N | nt | -2.1
O=C(N/N=C/c1ccccc1)c1[nH]ncc1I | -3 | 0.2
OCCNc1nc(NCCO)c2cnn(-c3ccccc3)c2n1 | -15 | nt
CCOc1ccc(-c2cc(O)cc3sc(=O)oc23)cc1 | -23 | nt
COc1ccccc1C(=O)COC(=O)C1CCCCN1S(=O)(=O)c1ccccc1 (stereo not drawn) | -6 | nt
Oc1ccc(Cl)cc1C=NCc1ccccc1 | nt | -0.2
Cc1ccc(C(=O)N/C(=C\c2cn(-c3ccccc3)nc2-c2ccccc2)C(=O)O)cc1 | 2 | 3.2
CN(C)c1scc(-c2ccc(Cl)cc2)c1C#N | nt | -3.0
O=C(Nc1ccc2c(c1)OCO2)C(=S)NCc1ccccc1 | nt | 0.4
COc1ccc(C(=O)Nc2ccc(-c3cn4cccnc4n3)cc2)cc1OC | 6 | nt
O=C(Nc1ccc2c(c1)OCO2)C(O)(c1ccccc1)c1ccccc1 | nt | -1.2
Cc1nn(-c2ccccc2)nc1CNC(=O)c1ncoc1-c1ccccc1 | 26 | nt
Cc1onc(-c2c(Cl)cccc2Cl)c1C(=O)O/N=C(\C#N)c1ccccc1 | -9 | nt
CCN(CC(=O)NCc1cccs1)c1ncnc2sc3c(c12)CCCC3 | -11 | nt
Cc1nnsc1-c1nnc(-c2ccccc2C(F)(F)F)o1 | nt | 0.1
O=C(Nc1csc(Cc2ccsc2)n1)Oc1ccccc1 | nt | -6.7
c1ccc(CCNc2nnns2)cc1 | nt | -0.2
COc1ccc(NS(=O)(=O)c2ccc3c(c2)N(C(C)=O)CC(C)O3)cc1OC (stereo not drawn) | -7 | nt
C=CCCCCCCCCCCCC(O)CC(O)COC(C)=O (stereo not drawn) (tested in a mixture with another compound) | nt | 2.6
Cc1cc(O)c(C(C)C)cc1NS(=O)(=O)c1ccccc1 | -5 | nt
CCc1noc(C)c1C(=O)OCC(=O)NC12CC3CC(CC(C3)C1)C2 | -3 | nt
COc1nc2c(c(-c3ccco3)c1C#N)Cc1cc(NC(C)=O)ccc1-2 | nt | 1.9
COc1ccc(C2CC(C)=C(C#N)S(=O)(=O)C2C#N)cc1 (stereo not drawn) | nt | -0.3
Clc1cccc(C2Nc3ccc4ccccc4c3C3C=CCC32)c1Cl (stereo not drawn) | nt | -1.2
Oc1cccc(-c2nc3ccc4ccccc4c3c3c2CCCC3)c1 | 10 | 0.4
CC(C)N(Cc1ccccc1)S(=O)(=O)c1cccc(C#N)c1 | -8 | nt
Nc1cc(-c2ccccc2)nn1S(=O)(=O)c1ccccc1 | 16 | -0.5
O=S(=O)(Cc1nc(-c2ccc(Cl)cc2)cs1)c1ccccn1 | 5 | nt
CCC(CC)NC(=O)CSc1ccccc1 | -6 | 1.5
c1ccc(C2CC(c3cccs3)n3nnnc3N2)cc1 (stereo not drawn) | 1 | 1.6
CN1OC(COC(=O)c2cc(Cl)cc(Cl)c2)CC12C1CC3CC(C1)CC2C3 (stereo not drawn) | nt | -1.8
NS(=O)(=O)c1ccc(NC(=O)CN2CCCc3ccccc32)cc1 | nt | -0.2
O=C(NCc1ccccc1)c1ccc(CS(=O)(=O)c2ccccc2)o1 | 6 | nt
Cc1ccc(-c2nc(CS(=O)CC(=O)NCCN3CCCC3)c(C)o2)cc1 (stereo not drawn) | 13 | nt
CC(C)Oc1ccc(C(=O)NC(CC(=O)O)c2ccccc2)cc1 (stereo not drawn) | 14 | 2.5
COc1ccc(OCc2cn3cccnc3n2)cc1 | 0 | nt
O=C(CSc1ncn[nH]1)Nc1ccc(S(=O)(=O)N2CCCCC2)cc1 | -21 | nt
CC(Sc1nnc(C2CC2)n1C1CC1)C(=O)c1ccc(NS(C)(=O)=O)cc1 (stereo not drawn) | 5 | nt
CCOC(=O)c1oc2ccccc2c1Cn1nnc(-c2ccccc2)n1 | 21 | nt
CC(C)(C)NC1CCCCC1NS(=O)(=O)c1ccccc1 (stereo not drawn) | 14 | 0.2
O=C(O)c1c2c(nc3ccccc13)CCC(c1ccccc1)C2 (stereo not drawn) | 8 | 1.9
CC(C)CC(NS(=O)(=O)c1ccc2c(c1)oc(=O)n2C)C(=O)NC1CCCc2ccccc21 (stereo not drawn) | -10 | nt
COCc1cc(=O)[nH]c(-c2cccc(C)c2)n1 | 16 | nt
CC(C)(C)c1cc(C(C)(C)C)n(-c2ccc(C(=O)NN)cc2)n1 | nt | -1.9
Cc1ccc(S(=O)(=O)CCN2CCN(c3ccccc3)CC2)cc1 | 4 | -0.4
O=C(O)c1ccccc1S(=O)c1cccc2cccc(CO)c12 (stereo not drawn) | nt | -2.1
CC(C)CCn1nc(C(=O)OCC(N)=O)c2ccccc2c1=O | -1 | nt
CCOc1ccsc1C(=O)Nc1ccc(OC(F)(F)F)cc1 | nt | -0.4
Cn1c(CNC(=O)c2ccco2)nnc1SCC(=O)c1ccccc1 | 9 | -0.2
CC(=O)Nc1nonc1NC1=CC(=O)CC(C)(C)C1 | -4 | 1.6
CC(C)CC1N=C2c3ccccc3N=C(SCC(=O)NCCc3ccc(S(N)(=O)=O)cc3)N2C1=O (stereo not drawn) | 8 | nt

Part of the list above, set out differently.
Order of results – S aureus helic, MgrA DNA FP
- NS(=O)(=O)c1ccc(NC(=O)CN2CCCc3ccccc32)cc1
 : nt, -0.2
- O=C(NCc1ccccc1)c1ccc(CS(=O)(=O)c2ccccc2)o1
 : 6, nt

The list goes on:
smiles | S aureus helic | MgrA DNA FP
CC1=Nc2cc(C(=O)N(C)Cc3ccccc3)ccc2Sc2ccc(Cl)cc21 | 5 | -1.9
COc1ccc(OC)c2[nH]c(C(F)(F)F)nc12 | nt | -0.5
Cc1c[nH]c(=S)c(C#N)c1 | -6 | nt
COCCN(C(=O)C1CC1)c1nnc(-c2cc(OC)c(OC)c(OC)c2)s1 | 2 | 0.5
CCOc1ccc(Nc2nc(N)nc(CN3CC(C)CC(C)C3)n2)cc1 (stereo not drawn) | -5 | -0.3
CC(=O)N/N=C/c1cc(C(C)C)cc(/C=N/NC(C)=O)c1O | -57 | 44
CCOc1ccccc1NC(=O)Cn1cnc2c(nnn2Cc2ccc(F)cc2)c1=O | -8 | nt
CCOC(=O)CCc1c(C)nc2c(c(C)nn2-c2ccccc2)c1C | 30 | nt
Nc1c(C(=O)c2ccc3c(c2)OCCO3)oc2ccccc12 | -17 | nt
O=C(Cc1cc(=O)[nH]c(=O)[nH]1)N1CCN(c2cccc(Cl)c2)CC1 | 6 | nt
O=C(O)CCN1CCN(c2ccccn2)CC1 | 1 | -4.3
CCN(CC)C(=O)C1c2ccccc2C(=O)N2CCc3cc(OC)c(OC)cc3C12 (stereo not drawn) | 3 | -0.1
S=C(NCc1ccccc1)N1CCCCCC1 | 12 | nt
O=C1CC(c2cccc(C(F)(F)F)c2)C2=C(CCCC2=O)N1 (stereo not drawn) | 11 | nt
O=C(O)c1cc(Cl)c[nH]1 | 4 | nt
O=C(COC(=O)Cc1cccc(C(F)(F)F)c1)NC1CCCCC1 | -17 | 0.1
O=C1CC(Sc2nnc(-c3ccccc3O)o2)C(=O)N1c1ccccc1 (stereo not drawn) | -26 | nt
COc1ccc(C(=O)c2sc3nc(N)c(C#N)c(-c4ccc(OC)cc4)c3c2N)cc1 | nt | -0.3
COc1ccc(/C=C2\SC(=O)N(CC(=O)Nc3nccs3)C2=O)cc1OC | nt | 2.2
CC(Oc1ccc(Cl)cc1Cl)C(=O)NC1=NN(c2ccccc2)C(=O)C1 (stereo not drawn) | 9 | -0.2
CCSC1=N/C(=C\c2cccc(F)c2)C(=O)S1 | 4 | 3.1
Cc1ccc2nc(CSc3nc4ccccc4c(=O)[nH]3)cc(=O)n2c1 | -10 | nt
Oc1c(Br)cc(Br)cc1C=Nc1ccccc1F | 15 | nt
CN(C)c1nc(C(=O)O)nc(N2CCOCC2)n1 | 12 | nt
Cc1nn(-c2ccccc2)nc1CNS(=O)(=O)c1ccc2c(c1)OCCN2C | nt | -1.2
O=S(=O)(CCN1CCC(C(F)(F)F)CC1)c1ccccc1 | nt | -1.3
CCOc1ccccc1NC(=O)CN(c1nccs1)S(=O)(=O)c1ccc(N)cc1 | 5 | nt
COc1ccc(CC2=C(O)c3ccccc3C(=O)C2=O)cc1 | nt | 4.8
N#C/C(=C\N)S(=O)(=O)c1ccc(Cl)cc1 | nt | -1.2
CCOC(=O)C1=C(C)N=c2s/c(=C\c3cc(Br)ccc3OC(C)=O)c(=O)n2C1c1ccc(OC)cc1 (stereo not drawn) | nt | 3.0
Nc1nnc(CCS(=O)(=O)c2ccc(Cl)cc2)s1 | 10 | nt
CSc1ccccc1C(=O)OC(C)C(=O)NC1CCCCC1 (stereo not drawn) | -6 | nt
COc1ccc(N2CCN(S(=O)(=O)c3ccc4[nH]c(=O)oc4c3)CC2)cc1 | -1 | nt
CCCc1ccc(OC)cc1NC(C)=O | nt | 1.9
Cn1nc(C2CC2)cc1NC(=O)COc1ccc(Cl)cc1Cl | nt | -2.0
Cc1cc(C)c(/C=N/O)c(C)c1/C=N/O | 10 | nt
O=C(Nc1ncc(Cc2ccccc2)s1)c1ccccc1 | -6 | nt
Cc1nn(-c2ccccc2)c2nc(-c3ccco3)cc(C(=O)O)c12 | 16 | nt
COc1ccc(NC(=O)Nc2cccc(OC)c2)cc1 | 9 | 2.5
CCCCN1C(=O)C(O)(CC(=O)c2c(C)coc2C)c2cc(Br)ccc21 (stereo not drawn) | 15 | 3.7
CCOC(=O)c1csc(Cc2c(Cl)cccc2Cl)n1 | nt | -0.9
O=C(O)CCc1ccc2c(c1)OCO2 | nt | -3.3
COc1ccc(-c2[nH]ncc2CN2CCN(c3cc(C(F)(F)F)ccn3)CC2)cc1 | nt | -0.2
CN(C)c1cccc(N=Cc2c(O)n(-c3ccc(Cl)cc3)c(=O)[nH]c2=O)c1 | 20 | 0.6
CCCCN1CCCc2cc(CN(Cc3ccco3)C(=S)Nc3ccc(Cl)cc3OC)ccc21 | 3 | -0.6
COC(=O)c1cnn(C(=O)c2ccccc2)c1NC(=S)Nc1ccc(C)cc1C | 9 | 1.9
Cc1ccc2nc(-c3cc4ccccc4o3)oc(=O)c2c1 | nt | -1.1
Oc1ccccc1Oc1c(F)c(F)nc(N2CCCC2)c1F | 19 | 2.6
Cc1oc(-c2ccc(Cl)cc2)nc1Cn1c(SCc2ccc(F)cc2)nc2ccncc21 | 23 | nt
Cc1sc2nc(SCc3cc(=O)[nH][nH]3)nc(N)c2c1C | -13 | nt
CCCCSc1nnc(Cn2c(=O)sc3ccccc32)n1C | 3 | nt

Screening data: PubChem, ICCB-Longwood Screening Facility, Harvard Medical School
